Six1-Eya2 inh – blocks human Six1 binding to Eya2; AID 651725; actives 0.56% (n = 360,000); AlphaScreen GST-Six1/His-Eya2 binding, biochemical; stronger effect = lower value; control for the full effect not named in the record; activity change, % (concentration not given with the values); Q15475+O00167; in the data active = activity change below about -65%; inconclusive = about -30% to -65%; inactive = above about -30%; further: on the % scale 0 is the no-effect control and ±100 the full control effect
Target sequence (O00167 whole entry, looked up): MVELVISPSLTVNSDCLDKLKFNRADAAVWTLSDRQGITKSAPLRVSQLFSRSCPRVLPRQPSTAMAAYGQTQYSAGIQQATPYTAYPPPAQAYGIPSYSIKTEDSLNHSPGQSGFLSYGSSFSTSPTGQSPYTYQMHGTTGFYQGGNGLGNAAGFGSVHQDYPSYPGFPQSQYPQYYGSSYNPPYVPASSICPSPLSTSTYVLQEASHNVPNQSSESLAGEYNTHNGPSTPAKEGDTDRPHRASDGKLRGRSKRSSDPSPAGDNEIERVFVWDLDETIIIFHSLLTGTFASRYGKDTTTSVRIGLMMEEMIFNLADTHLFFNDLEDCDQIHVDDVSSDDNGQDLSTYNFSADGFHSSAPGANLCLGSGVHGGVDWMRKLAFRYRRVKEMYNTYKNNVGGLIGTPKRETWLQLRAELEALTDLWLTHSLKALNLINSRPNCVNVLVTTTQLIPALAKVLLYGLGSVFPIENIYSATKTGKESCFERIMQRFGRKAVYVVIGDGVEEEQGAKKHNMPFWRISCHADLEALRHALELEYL
Target sequence (Q15475 whole entry, looked up): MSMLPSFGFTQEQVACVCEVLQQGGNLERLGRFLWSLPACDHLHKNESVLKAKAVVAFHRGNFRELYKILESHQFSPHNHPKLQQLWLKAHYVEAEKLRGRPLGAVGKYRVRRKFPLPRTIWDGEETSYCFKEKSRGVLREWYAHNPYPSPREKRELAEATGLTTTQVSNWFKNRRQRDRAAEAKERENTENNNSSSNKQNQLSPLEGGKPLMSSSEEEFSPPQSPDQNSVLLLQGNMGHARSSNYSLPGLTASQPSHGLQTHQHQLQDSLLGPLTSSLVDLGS
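AlphaScreen with GST-Six1 and His-Eya2 (5X mix: 250 nM and 500 nM), glutathione donor and nickel acceptor beads; buffer 50 mM Tris pH 8.0, 300 mM NaCl, 1 mM TCEP; 1 h at 37 C in the dark.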
D2 ag – human D2 receptor agonism in beta-arrestin assay; P14416; DiscoveRx PathHunter D2 beta-arrestin, luminescence, 90 min; 100% = 57 uM dopamine signal; activation, % (concentration not given with the values); actives 0.084% (n = 360,000); AID 624465; in the data active = activation above about 40%; inconclusive = about 15% to 40%; inactive = below about 15%; further: compound concentration not given in the record; the text of the record calls up to 30% inactive
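Agonist mode: compounds alone added to overnight-plated D2 PathHunter cells for 90 min at 37 C, with 57 uM final dopamine (EC100) defining full response. Beta-arrestin recruitment detected by chemiluminescent reagent, read after 1 h at ambient temperature.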
D2 potentiator – positive allosteric modulators of human D2 dopamine receptor; potentiation, % (concentration not given with the values); actives 0.23% (n = 360,000); DiscoveRx D2 beta-arrestin cells, luminescence, 90 min; 100% = 57 uM dopamine signal; AID 624464; active = potentiation of 50% or more; inconclusive = 30% to 50%; inactive = 30% or less;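 further: compound concentration not given in the record; tested on top of an EC20 dose of dopamine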
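PathHunter beta-arrestin assay in DiscoveRx D2 cells. Compounds were added with an EC20 of dopamine (50 nM final) for 90 min at 37 deg C. Luminescence was read 1 h after detection reagent, with 57 uM dopamine as the EC100 control.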
gsp antagonist – gsp mutant antagonism; gsp-mutant cells, cAMP HTRF, 30 min; control for the full effect not named in the record; Potency, µM (top dose mostly 76.9 µM), inactives show at the top dose activity change, negative = inhibition, usual class: inhibitors; actives 0.4% (n = 340,000); AID 624288; active = falling curve of any shape with a large fitted effect; inconclusive = falling curve, mostly with a smaller effect; inactive = flat or rising curve; cell line not stated here;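 further: intracellular cAMP measured with PDE inhibitor Ro 20-1724 present during compound exposure; potency means the concentration at half of the fitted maximal effect; on the % scale 0 is the no-effect control and ±100 the full control effect; nearly all actives have a fitted effect of over 65% in size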
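HTRF cAMP measurement after 30 min RT detection following 30 min, 37C compound treatment alongside […] (added as 300 uM solution) in G418-selected cells seeded at 2000/well and grown 16–24 h.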
gsp agonist – agonists of gsp mutant (McCune-Albright syndrome). Potency, µM (top dose mostly 76.9 µM), without a hit: at the highest dose activation (cAMP increase), usual class: activators. gsp mutant cells, cAMP HTRF, 30 min; control for the full effect not named in the record. actives 0.13% (n = 340,000). AID 624287; active = well fitted activation curve with a large enough effect; inconclusive = small, poorly fitted or top-dose-only effect, or another doubt; inactive = no such curve, though single readings can be large or run the other way; cell line not stated here;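 further: phosphodiesterase inhibitor Ro 20-1724 added with compounds to block cAMP breakdown; potency means the concentration at half of the fitted maximal effect; nearly all actives have a fitted effect of over 60% in size; about a fifth of the inactives were tested at one dose only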
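Cells stably selected in G418 were plated at 2000/well, grown 16-24 hr, then given compounds in DMSO with the PDE inhibitor […] (300 uM solution added) for 30 min at 37C; cAMP was read by HTRF.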
CtBP-E1A inh – inhibitors of CtBP/E1A interaction; activity change, % (test concentration not listed); AlphaScreen GST-E1A/His-CtBP binding, 1536-well; stronger effect = lower value; control for the full effect not named in the record; AID 651724; actives 0.49% (n = 340,000); in the data active means activity change below about -65%; inconclusive means about -30% to -65%; inactive means above about -30%; further: on the % scale 0 is the no-effect control and ±100 the full control effect; compound concentration not given in the record
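Protein mix (5X: 125 nM each GST-E1A, His-CtBP) was incubated with pinned compound 2 h at 37 deg C in dark, in 50 mM Tris pH 8.0 buffer with 300 mM NaCl. Glutathione donor and nickel acceptor beads followed; AlphaScreen signal read after 1 h.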
Active calls of the source: *; ? = inconclusive; . = not tested or not shown; [ ] = another dose, or the depositor's remark.

SMILES	Six1-Eya2 inh	D2 ag	D2 potentiator	gsp antagonist	gsp agonist	CtBP-E1A inh
Nc1ccccc1C=C1Cc2ccccc2C1=O	5.6	-0.5	-7.4	-3.2%	14.1%[15.4 µM]	3.6
O=C(CCSCCc1ccccn1)Nc1nccs1	-3.7	-4.6	-7.7	-1.3%	10.0%	4.3
COc1ccc(C(=O)N/C(=C\c2cn(C)c3ccccc23)C(=O)NCCN2CCOCC2)cc1OC	-8.7	-2.0	-15.7	-5.6%	-9.3%	.
Cc1ccc(C2(CCNCc3ccco3)CCOC(C(C)C)C2)cc1 (stereo not drawn)	-3.3	-4.2	-21.4	14.2%	-1.5%	-9.6
COc1ccc(Cl)cc1NC(=O)CCc1nnc2ccc(N3CCC4(CC3)OCCO4)nn12	-14.2	-0.5	-25.4	3.8%	?	-10.6
O=C1CCCN1CC(=O)N1CCCC(N2CCN(c3cccc(Cl)c3)CC2)C1 (stereo not drawn)	6.9	-3.5	-30.5	1.6%	22.1%	-22.2
Cc1ccc(NCc2nnc(SCC(=O)NCc3ccco3)n2CC2CCCO2)cc1Cl (stereo not drawn)	-1.3	0.0	-7.5	0.3%	9.6%	-4.4
C#CCOCCOCCOCCNc1nc(N2CCN(C(=O)[C@H]([C@@H](C)O)n3cc(CCCCN)nn3)CC2)nc(N2CCN(C(=O)[C@H](Cc3ccc(O)cc3)n3cc(CCO)nn3)CC2)n1	3.4	-2.6	-7.9	9.8%	10.0%	4.9
COc1ccccc1C(=O)Nc1onc(C)c1C#N	-0.6	7.7	2.3	0.4%	-6.7%	.
CCC(CC)C(=O)NCCc1ccc(F)cc1	-1.7	-2.9	-13.4	-3.0%	0.0%	0.0
Cc1c(NC(=O)COc2ncnc3c(Cl)cc(Cl)cc23)c(=O)n(-c2ccccc2)n1C	5.1	-1.1	-12.8	4.0%	?	-0.4
CC1(C)C(=O)OC(C(=O)c2ccc(C(C)(C)C)cc2)C(C)(C)C1=O (stereo not drawn)	6.9	0.3	-6.2	-12.2%	5.0%	-0.9
CCOC(=O)NC(=O)CSc1nc(C)cc(C)c1C#N	-6.0	-1.8	0.6	-2.8%	-1.1%	-2.7
O=C(Nc1ccc(Cl)cc1)c1cnc(-c2ccccc2)nc1-c1ccccc1	2.8	1.3	-8.6	6.8%	-44.0%[inhibitor]	6.4
CCOC(=O)N1CCN(C(=O)c2ccc(CS(=O)Cc3ccc(C)cc3)o2)CC1 (stereo not drawn)	2.6	-2.5	-4.7	-2.6%	?	.
O=[N+]([O-])c1cccc2c(Cl)ccnc12	-3.9	-1.8	5.5	4.4%	-5.4%[15.4 µM]	-22.7
CCC(C)NC(=O)c1cn(-c2cccc(C)n2)cn1 (stereo not drawn)	-6.0	0.3	-4.6	-2.4%	5.6%	3.3
COc1ccc(CNC(=O)C[C@H]2C[C@H](C(=O)N(C(C)C)C(C)C)[C@@]3(C)c4[nH]c5cc(CCC(=O)N(C)C)ccc5c4CCN3C2=O)cc1OC	1.0	0.7	.	-2.8%	.	9.7
Cc1nn(C(=O)c2ccco2)c(C)c1Br	6.3	-1.9	-15.7	5.2%	-0.8%	2.1
CCCc1ccc(C(=O)[C@@H]2[C@@H](C(C)=O)N3c4ccc(F)cc4C=C[C@@H]3[C@@]23C(=O)Nc2ccccc23)cc1	9.8	-0.4	1.1	0.2%	-8.4%[15.4 µM]	0.0
COCCCNC(=S)N1CCN(C(c2ccccc2)c2ccccc2)CC1	15.4	-7.5	-31.5	-18.1%	-5.8%	0.0
CCN(c1ccccc1)S(=O)(=O)c1ccc(NC(=S)NC(=O)c2ccc(Br)o2)cc1	-20.9	0.6	-24.7	-20.4%	-39.7%[inhibitor]	-12.3
Cc1ccc2nccc(C(=O)N3CCCC(N4CCN(c5ccc(F)cc5)CC4)C3)c2c1 (stereo not drawn)	4.3	-2.0	-13.9	3.7%	-61.7%[inhibitor]	0.0
O=C(CCCn1c(=O)c2cccn2c2cccnc21)N1CCN(c2ccccc2F)CC1	3.7	-8.8	-8.2	2.0%	-5.7%	-0.6
CC(C)NC(=O)COc1ccc(/C=N/NS(=O)(=O)c2ccccc2)cc1	0.1	-3.1	6.4	-8.2%	1.6%	4.1

A second format for some results above:
Results follow in this order: Six1-Eya2 inh | D2 ag | D2 potentiator | gsp antagonist | gsp agonist | CtBP-E1A inh
- COc1ccc(CNC(=O)C[C@H]2C[C@H](C(=O)N(C(C)C)C(C)C)[C@@]3(C)c4[nH]c5cc(CCC(=O)N(C)C)ccc5c4CCN3C2=O)cc1OC
→ 1.0 | 0.7 | . | -2.8% | . | 9.7
- CCOC(=O)N1CCN(C(=O)c2ccc(CS(=O)Cc3ccc(C)cc3)o2)CC1 (stereo not drawn)
→ 2.6 | -2.5 | -4.7 | -2.6% | ? | .

Next section.
SMILES	Six1-Eya2 inh	D2 ag	D2 potentiator	gsp antagonist	gsp agonist	CtBP-E1A inh
CCC(=O)NC(c1ccc(C)cc1)c1ccc2cccnc2c1O (stereo not drawn)	-88.7*	-0.8	0.0	-1.5%	-26.4%	-89.9*
CCN1CCN(c2nc(Nc3ccc(OC)cc3)nc(N)c2[N+](=O)[O-])CC1	-15.9	-0.1	-21.7	7.0%	-8.1%[15.4 µM]	-9.5
O=C(COc1ccccc1)Nc1cc(S(=O)(=O)N2CCOCC2)ccc1N1CCCC1	0.0	-2.6	8.2	-8.1%	-25.1%	-2.3
COc1ccccc1N1C(=O)c2cccc3cccc(c23)C1=O	-1.2	-3.3	-2.8	7.1%	-3.3%	-3.5
NC(=O)c1ccc(S(=O)(=O)N2CCSCC2)cc1	3.7	2.3	0.6	8.6%	?	0.9
CN(C)C(=O)c1ccc(NC(=O)CN2C(=O)NC3(CCCc4ccccc43)C2=O)cc1 (stereo not drawn)	-0.5	-4.1	-22.6	4.6%	6.9%	-4.7
CS(=O)(=O)N(CC(=O)NCCSCc1ccco1)c1ccc(Cl)cc1	1.1	-2.6	0.1	0.2%	22.2%[15.4 µM]	3.1
COc1cccc(-n2c(SCC(=O)c3c[nH]c4ccccc34)nc3ccccc3c2=O)c1	5.1	1.8	-4.8	-8.9%	-2.6%	.
C=CCC(C=C)S(=O)(=O)c1ccc(C)cc1 (stereo not drawn)	6.1	-3.3	-28.5	3.1%	-2.3%	-2.4
COc1cccc(-c2noc(C3CCCN(C(=O)c4ccc(F)cc4)C3)n2)c1 (stereo not drawn)	0.0	1.6	-1.9	-22.7%	-7.7%	-2.5
CCCCC(=O)Nc1ccc2oc(-c3cccnc3)nc2c1	-3.8	-2.6	13.1	-19.8%[15.4 µM]	?	15.8
CC(Sc1nc2c(N)ncnc2n1CCOc1ccccc1)C(=O)O (stereo not drawn)	3.7	-1.4	2.2	11.0%	9.5%	.
CC(=O)c1c(C)[nH]c(C(=O)NCCC2=CCCCC2)c1C	-1.5	0.5	-28.0	2.3%	21.8%	3.4
NCC12CC3CC(C1)CC(c1ccc(Cl)cc1)(C3)C2	-13.9	-13.1	-15.9	21.1%	20.8%	.
CCCCN1C(=O)C(C#N)CC2=C1CC(C)(C)CC2=O (stereo not drawn)	2.9	-7.3	.	-12.3%	.	2.0
CCN(C(=O)CSc1nc2scc(-c3ccccc3)c2c(=O)n1N)C1CCS(=O)(=O)C1 (stereo not drawn)	-5.2	-3.1	-19.5	?	10.5%	8.3
COc1ccccc1NC(=S)NCc1ccccn1	-8.8	-0.3	-8.3	5.3%	5.0%[15.4 µM]	-5.8
CC(C)(C)NC(=O)C(=O)NCc1ccccn1	-2.4	-2.9	-1.2	3.3%	12.7%[15.4 µM]	-3.3
CCOC(=O)c1ccc(NC(=O)CSc2nnc(COc3ccccc3)n2C)cc1	10.5	-0.2	-1.8	5.4%	-26.3%	3.5
CCOc1ccccc1CN1CCC(Oc2ccc(C(=O)NCc3ccccn3)cc2)CC1	-1.5	0.8	-25.4	4.4%	3.0%	-3.3
COc1ccc(CC(=O)OCC(=O)Nc2cccc(Br)c2)cc1	4.7	5.7	-0.2	10.1%	6.7%[15.4 µM]	1.4
CN(c1ccccc1)S(=O)(=O)c1ccc(Cl)c(C(=O)Nc2ccc(N3CCOCC3)cc2)c1	-14.6	4.7	6.4	1.2%	-4.7%	-13.4
CCCn1c(=O)c2sccc2n2c(CCCC(=O)NCc3cccnc3)nnc12	-1.3	-1.0	3.5	21.6%	?	-3.0
COc1ccc(C2(C)NC(=O)N(CC(=O)NCCC3=CCCCC3)C2=O)cc1OC (stereo not drawn)	10.1	-1.3	2.1	-4.2%	-5.9%	3.2
CC(=O)Nc1cccc(NC(=O)c2cccc(-c3ccc(O)cc3)c2)c1	2.1	0.9	-4.6	-18.9%	-1.5%[15.4 µM]	0.0

Marked active in Six1-Eya2 inh (from the list above):
SMILES	Six1-Eya2 inh	D2 ag	D2 potentiator	gsp agonist	CtBP-E1A inh
CCC(=O)NC(c1ccc(C)cc1)c1ccc2cccnc2c1O (stereo not drawn)	-88.7*	-0.8	0.0	-26.4%	-89.9*

Next section.
SMILES	Six1-Eya2 inh	D2 ag	D2 potentiator	gsp antagonist	gsp agonist	CtBP-E1A inh
COc1cc(/C=N/NC(=O)CCN2CCCCC2)ccc1O	12.7	2.7	-10.4	8.3%	-1.3%[15.4 µM]	.
O=C(CSc1nnc(-c2ccco2)c(-c2ccco2)n1)c1ccccc1	?	-2.3	-10.9	-27.7%	1.5%	-23.5
O=C(COC(=O)COc1cccc(Br)c1)Nc1c(Cl)cccc1Cl	19.7	-3.5	-5.9	1.2%	4.8%	-10.8
O=C(N1CCOCC1)N(CCN1CCOCC1)Cc1cccc2ccccc12	5.6	-2.1	-12.8	9.4%	-22.5%	-6.2
Cn1nnc(NC(=O)c2cccc([N+](=O)[O-])c2)n1	6.0	3.0	6.1	1.6%	?	.
O=S(=O)(c1ccccc1)c1nc(-c2ccc(F)cc2)oc1NCC1CCCO1 (stereo not drawn)	-5.8	-4.2	-16.3	-9.2%	-10.4%	-0.4
CCOc1ccc(NC(=O)c2sc3nc(C)nc(N4CCOCC4)c3c2C)cc1	-20.0	1.1	0.7	-5.4%	20.8%	-20.6
COc1ccc2cc(C(=O)Nc3c(C)n(C)n(-c4ccccc4)c3=O)sc(=O)c2c1OC	4.2	-1.3	-2.5	-1.6%	-56.8%[inhibitor]	4.9
Cc1cccc(OCC(=O)Nc2cccc(C(=O)Nc3ccccc3C(=O)O)c2)c1	-22.1	-1.6	-2.1	-12.8%	-14.2%	-12.4
CN(C(=O)c1cccnc1)c1nnc(-c2cccnc2)s1	7.1	0.2	1.7	4.3%	-4.6%	3.1
O=C(NNC(=O)c1cc(Br)ccc1Cl)c1csc(N2CCOCC2)n1	-13.2	-2.5	-23.2	-1.7%	22.8%[15.4 µM]	3.0
CC(c1ccccc1)c1nnc(N)s1 (stereo not drawn)	-0.7	-2.3	-2.1	9.2%	-51.6%[inhibitor]	.
COc1cccc(N2C(=O)Nc3ccc(Br)cc3C2(O)C(=O)NCCN(C)C)c1 (stereo not drawn)	2.3	3.5	-7.9	14.4%	-20.5%	-7.3
CCCCN=C1NN=C(c2cccc([N+](=O)[O-])c2)CS1	-14.4	-11.2	-18.5	-4.5%	?	-15.8
